# KCNQ2 inh = KCNQ2 potassium channel inhibitors, primary screen, cell-based, CHO-K1, FluxOR thallium flux, B-score (AID 2156); 310,000 tested, 1.1% active; O88943; B-score at 10 µM; 20 min; active compounds read low; only compounds with negative scores are shown here; some inactives read as strong as hits;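 active means fluorescence ratio B-score at most minus 3 library SDs, with starting brightness B-score within 2 library SDs, cut at about -5.5 in these data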
# Target sequence (O88943 whole entry, looked up): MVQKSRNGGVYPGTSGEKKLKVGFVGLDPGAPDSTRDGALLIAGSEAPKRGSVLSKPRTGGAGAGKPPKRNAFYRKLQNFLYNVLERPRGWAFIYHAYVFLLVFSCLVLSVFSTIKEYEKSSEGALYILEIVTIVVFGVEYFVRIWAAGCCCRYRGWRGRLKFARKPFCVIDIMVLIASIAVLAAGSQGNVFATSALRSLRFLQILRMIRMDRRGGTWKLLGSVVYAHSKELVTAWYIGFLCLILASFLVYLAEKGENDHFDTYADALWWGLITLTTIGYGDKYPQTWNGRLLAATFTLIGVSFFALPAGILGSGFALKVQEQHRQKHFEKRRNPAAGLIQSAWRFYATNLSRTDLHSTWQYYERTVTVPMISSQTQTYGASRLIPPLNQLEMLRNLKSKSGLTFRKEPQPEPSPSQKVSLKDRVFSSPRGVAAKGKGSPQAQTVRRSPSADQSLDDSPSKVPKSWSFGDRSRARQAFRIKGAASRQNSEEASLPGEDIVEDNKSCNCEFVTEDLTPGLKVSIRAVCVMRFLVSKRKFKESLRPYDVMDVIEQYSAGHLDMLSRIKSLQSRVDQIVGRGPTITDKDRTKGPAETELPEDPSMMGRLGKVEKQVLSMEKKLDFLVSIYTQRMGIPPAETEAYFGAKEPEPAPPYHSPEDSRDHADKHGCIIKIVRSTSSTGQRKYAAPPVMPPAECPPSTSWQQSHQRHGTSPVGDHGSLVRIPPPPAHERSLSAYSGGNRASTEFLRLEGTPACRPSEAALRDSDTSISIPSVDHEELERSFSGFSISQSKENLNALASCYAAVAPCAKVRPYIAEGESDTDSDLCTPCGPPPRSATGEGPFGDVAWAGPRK
# KCNQ2 inh baseline = recorded beside KCNQ2 inh, whose call it bears; B-score; measured here: initial fluorescence intensity artifact check;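 brightness before thallium and not channel activity; 0 = typical well and far values either way flag optical interference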
# The depositor's hits bear a star; i = inactive. Some of the compounds tested, so the mix of outcomes need not match the whole.
# Start of the listing, in advance:
Structure	KCNQ2 inh baseline	KCNQ2 inh
COC(=O)c1cc(C(C)=O)n2ccccc12	-0.97	i
Cc1ccc(OCC(=O)N/N=C/c2ccc3c(c2)OCO3)cc1C	0.13	i
O=C(CSc1nc2cc(Cl)ccc2s1)N1CCCc2ccccc21	1.7*	-5.9*
CC(C)CC(=O)NCCCN1CCN(CCCNC(=O)CC(C)C)CC1	0.02	i
C#CC(C)(C)NC(=O)c1sccc1Oc1ccc(F)cc1[N+](=O)[O-]	-0.54	i

# This part in full, from the start:
Structure	KCNQ2 inh baseline	KCNQ2 inh
COC(=O)c1cc(C(C)=O)n2ccccc12	-0.97	i
Cc1ccc(OCC(=O)N/N=C/c2ccc3c(c2)OCO3)cc1C	0.13	i
O=C(CSc1nc2cc(Cl)ccc2s1)N1CCCc2ccccc21	1.7*	-5.9*
CC(C)CC(=O)NCCCN1CCN(CCCNC(=O)CC(C)C)CC1	0.02	i
C#CC(C)(C)NC(=O)c1sccc1Oc1ccc(F)cc1[N+](=O)[O-]	-0.54	i
COCCOC(=O)c1sc2nc[nH]c(=O)c2c1C	0.73	i
Cc1ccc(NC(=O)C(=O)NCC2CCCN2S(=O)(=O)c2cccs2)cc1 (configuration not stated)	-1.6	i
Cc1nonc1NC(=O)CSc1nnnn1-c1ccccc1	0.11	i
O=C(NCc1ccccc1)C1=C[C@H](c2ccc(Br)cc2)C[C@H](OCCCCO)O1	-1.1	i
CN1CCC(OC(=O)COc2ccc(Cl)cc2Cl)CC1	-0.56	i
CC(C)N1CCc2c(sc(NC(=O)C3CCCCC3)c2C(N)=O)C1	1.5	i
Cc1[nH]n(-c2ccc(Br)cc2)c(=O)c1/C=N/NC(=O)c1ccccc1	0.68	i
CC(NC(=O)COc1ccc(/C=N/NS(=O)(=O)c2ccccc2)cc1)c1ccccc1 (configuration not stated)	-0.02	i
CCC(=O)OC1CSc2nc3ccccc3n2C1 (configuration not stated)	2.1	i
Cc1occc1C(=O)N/N=C/C=C/c1ccc(N(C)C)cc1	-0.06	i

# Quoted from the listing:
# In KCNQ2 inh baseline, Cc1ccc(NC(=O)C(=O)NCC2CCCN2S(=O)(=O)c2cccs2)cc1 (configuration not stated) has -1.6
# In KCNQ2 inh baseline, COCCOC(=O)c1sc2nc[nH]c(=O)c2c1C has 0.73
# In KCNQ2 inh baseline, C#CC(C)(C)NC(=O)c1sccc1Oc1ccc(F)cc1[N+](=O)[O-] has -0.54
# In KCNQ2 inh, O=C(CSc1nc2cc(Cl)ccc2s1)N1CCCc2ccccc21 has -5.9*

# Next part
Structure	KCNQ2 inh baseline	KCNQ2 inh
c1ccc(Sc2ccccn2)cc1	-1.2	i
CC(C)(C)c1ccc(OC2=CS(=O)(=O)c3ccccc32)cc1	1.6	i
O=C(NC1CCSc2ccccc21)c1cccc(Br)c1 (configuration not stated)	0.7	i
CC(C(=O)N1CCCCC1)n1sc2ccccc2c1=O (configuration not stated)	-0.03	i
C=CCn1c(SCc2cc(C(C)=O)ccc2OCC)nc2ccccc2c1=O	0.09	i
CS(=O)(=O)N(Cc1ccco1)Cc1ccccc1Cl	0.03	i
O=C(Nc1nc2ccccc2n1CCN1CCCCC1)c1ccc(Cl)cc1	0.41	i
CCCOc1ccc(N2C(=O)CC(N3CCN(c4nc5ccccc5s4)CC3)C2=O)cc1 (configuration not stated)	0.42	i
Cc1ccc(S(=O)(=O)Oc2ccccc2/C=N/N=C(N)N)cc1	0.05	i
COC(=O)N1C(=O)[C@](c2ccccc2)(C(C)C)N1C(=O)OC	0.12	i
COc1ccc(C2C(C#N)=C(N)Oc3cc(C)n(Cc4ccco4)c(=O)c32)cc1 (configuration not stated)	-0.29	i
O=C(CN(C(=O)CNS(=O)(=O)c1ccc(F)cc1)c1ccccc1)NCc1ccco1	0.16	i
COc1ccccc1N1CCN(/N=C/c2cccc(O)c2)CC1	-0.51	i
CC(=O)Nc1sc(N/N=C\c2ccc(O)cc2)nc1-c1cccs1	-0.83	i
CC(C)(C)SCCNC(=O)CN1C(=O)c2ccccc2S1(=O)=O	1.3	i

# (more compounds)
Structure	KCNQ2 inh baseline	KCNQ2 inh
Cc1ccc(NC(=O)CSc2ccc3c(c2)OCCO3)nc1	0.73	i
COc1ccc2cc(C(=O)N3CCN(c4ccccc4OC)CC3)[nH]c2c1	2.1	i
COc1ccc(CN(CC(=O)NCc2ccccc2)C(=O)CCC(=O)Nc2nccs2)cc1	-0.89	i
CO/N=C(/CNC(=O)c1cccc(Cl)c1)c1ccc(Cl)cc1	-1.7	i
COCCN(CCOc1cc(C)cc(C)c1)Cc1ccc(Cl)cc1	2.7	i
CC1(C)Cc2c(cnn2-c2cccc(F)c2)C(NC(=O)CSc2ccccn2)C1 (configuration not stated)	0.68	i
Cc1ccc(OCC(=O)NC2CCS(=O)(=O)C2)c(C)c1 (configuration not stated)	0.18	i
CCC1(CC)C(=O)NC(=O)NC1=Nc1cccc(OC)c1	-0.03	i
Cc1cccc(N2CCN(Cc3cn(C)nc3-c3ccccc3F)CC2)n1	0.73	i
O=C(O)c1cccc(COc2ccc3c(c2)CCC3)c1	0.05	i
CC(C)N(Cc1nc(-c2ccccc2)no1)C(=O)C1CCCCC1	1.9	i
O=C(c1ccccc1)N1N=C(c2ccc(F)cc2)CC1(O)C(F)(F)F (configuration not stated)	-0.28	i
Cc1cccc(OCC(=O)N/N=C\c2cc3c(cc2[N+](=O)[O-])OCO3)c1C	1.4	i
O=C1CCc2cc(S(=O)(=O)N3CCN(c4cccc(Cl)c4)CC3)ccc2N1	0.01	i
Cc1cccc(S(=O)(=O)N2CCN(Cc3ccc4c(c3)OCO4)CC2)c1	-0.04	i

# (further entries)
Structure	KCNQ2 inh baseline	KCNQ2 inh
CN(c1ccccc1)S(=O)(=O)c1cccc(NS(=O)(=O)c2ccc(/C=C/C(=O)O)cc2)c1	-2.2	i
Cc1cccc(NC(=O)NNC(=O)COc2ccc3ccccc3c2)c1	2.2	i
COCCCNC(=O)Cn1c(=O)n(Cc2ccc(F)cc2)c(=O)c2sccc21	1.4	i
COc1cccc(NC(=O)Cn2c(=O)n(-c3ccccc3)c(=O)c3sccc32)c1	0.43	i
CCC(C(=O)NCc1ccc(F)cc1)n1nc(C)n2c(cc3occc32)c1=O (configuration not stated)	-0.44	i
CCN(Cc1cc(=O)n2ccsc2n1)Cc1nc2cc(OC)c(OC)cc2c(=O)[nH]1	-0.87	i
COC(=O)N/N=C/c1cccc(OC(=O)c2ccc3c(c2)OCO3)c1	0.91	i
Cc1cc(=O)oc(C)c1C(=O)NC12CC3CC(CC(C3)C1)C2	0.96	i
O=S(=O)(NCC(c1ccc2c(c1)OCO2)N1CCOCC1)c1ccc(Cl)cc1 (configuration not stated)	0.16	i
CC(=O)c1c(CSc2ccccc2)oc2ccc(O)c(CN(C)C)c12	1.1	i
Cn1cc(Br)c(C(=O)NNC(=O)Nc2ccccc2C(F)(F)F)n1	-0.27	i
Clc1ccc(-c2nnc(-c3cccnc3)o2)cc1	0.7	i
COc1ccc(CCNC(=O)c2cc(C(C)C)on2)cc1OC	1.4	i
O=C(c1ccccc1)C(O)C(c1ccccc1)N1CCOCC1 (configuration not stated)	2.5	i
CCOC(=O)c1[nH]c(C)c(C(=O)N2CCN(c3ccc(OC)cc3)CC2)c1C	0.55	i

# (listing goes on)
Structure	KCNQ2 inh baseline	KCNQ2 inh
CSCC[C@H](NC(=O)[C@@H]1Cc2ccccc2CN1)C(=O)NC1CCCCC1	-2	i
COc1ccc(C2NC(=O)CCC2[N+](=O)[O-])cc1OC (configuration not stated)	-0.41	i
COc1ccc(NC(=O)NCc2ccncc2)cc1	1.8	i
CCCC1(c2ccccc2)NC(=O)N(C/C=C/Cl)C1=O (configuration not stated)	-0.79	i
Cc1ccc(-c2cc(C(=O)Nc3ccc(S(=O)(=O)Nc4ncccn4)cc3)[nH]n2)c(O)c1C	1.2	i
O=C(OCc1cnc(Cl)s1)c1c(F)cccc1F	-0.8	i
O=P(C(=NCCO)NO)(N1CCOCC1)N1CCOCC1	0.18	i
Cc1nn(Cc2ccc([N+](=O)[O-])cc2)c(=O)n1-c1ccc(F)cc1	-0.33	i
COc1ccc(Cl)cc1NC(=O)CNCc1cccs1	1.1	i
COC(=O)c1ccc(N2CCN(C)CC2)c(NC(=O)COc2ccc(OC)cc2)c1	-1	i
O=C1CC(=O)CC(c2ccccc2Cl)C1	0.82	i
CCCc1nc2ccc(NC(=O)NCCC(=O)OCC)cc2c(=O)n1Cc1cccc(Cl)c1	0.17	i
COc1ccc(/C=C2\Oc3cc(OCC(=O)N4CCC[C@H]4CO)ccc3C2=O)c(OC)c1	3.1	i
Cc1cccc(CSc2nnc(CCNC(=O)OC(C)(C)C)o2)c1	-1.3	i
O=C(COC(=O)c1cnccn1)Nc1ncc(Cl)cc1Cl	1.5	i

# Continued:
Structure	KCNQ2 inh baseline	KCNQ2 inh
CC1(C)C([N+](=O)[O-])C(c2ccc(F)cc2)NC(c2ccc(F)cc2)C1[N+](=O)[O-] (configuration not stated)	1.1	i
O=C(NCc1ccc2c(c1)OCO2)c1cccc(S(=O)(=O)N2CCOCC2)c1	1.2	i
CCOC(=O)c1c[nH]c2c(C(=O)c3ccccc3)cc(Cl)cc2c1=O	-0.27	i
Cn1c(CN2CCCC2)nc2cc(NC(=O)Nc3ccccc3)ccc21	1.4	i
Cc1cccc2nc(Cn3c(=O)n(CCC(=O)NCc4ccco4)c(=O)c4sccc43)cc(=O)n12	2.2	i
COc1ccccc1/C=C\C=N\NC(=O)CCn1nnc2ccccc21	0.19	i
COC(=O)Cc1ccc(NC(=O)c2ccc(C(C)(C)C)cc2)cc1	0.88	i
CS(=O)(=O)c1ccc(Cl)c(NC(=O)c2cccc(Br)c2)c1	3.2	i
COC(=O)c1ccc(N2CCN(C)CC2)c(NC(=O)c2sc3ccccc3c2Cl)c1	-3	i
CN(C)c1nc2n(c(=O)n1)C(C#N)CS2 (configuration not stated)	0.66	i
CCOc1ccc(N2C(=O)/C(=C/c3ccccc3)N=C2SC)cc1	1.1	i
CCOC(=O)Cc1nc2ccccc2[nH]1	0.15	i
O=C(NC1CCCC1)c1cnn2c(C(F)(F)F)cc(-c3ccc4c(c3)OCO4)nc12	0.65	i
Cc1ccc(-c2csc(NC(=O)CSc3nc4ccccc4c(=O)n3CCCN(C)C)n2)cc1	-0.84	i
CCn1c2c(c(=N)c3c1CCC3)CCC2	-0.25	i

# The results go on:
Structure	KCNQ2 inh baseline	KCNQ2 inh
Cc1ccc(CN2CCC(CNC(=O)C3CCCN(c4ncnc5c4nc4n5CCCCC4)C3)CC2)cc1 (configuration not stated)	-2.5	i
COc1ccc(/C=C(/NC(=O)c2ccc([N+](=O)[O-])cc2)C(=O)NC(C)(C)C)cc1	1.4	i
Cc1[nH]n(CCC#N)c(=O)c1CC(=O)N1CCN(c2ccccc2)CC1	-0.35	i
Cc1ccc(NCc2nnc(SCC(=O)Nc3nnc(C)s3)n2C)cc1	-0.39	i
COc1ccc(N2CCN(S(=O)(=O)CCNC(=O)c3cccs3)CC2)cc1	0.4	i
C#CCOCCOCCOCCNc1nc(N2CCOCC2)nc(N2CCN(C(=O)[C@H]([C@@H](C)CC)n3cc([C@@H](N)CO)nn3)CC2)n1	0.26	i
C/C(CC(=O)NCc1ccc(Cl)cc1)=N\NC(=O)COc1ccc(C)cc1Br	-0.55	i
COC(OC)C12c3ccccc3C(c3ccccc31)C1C(=O)N(c3cccnc3)C(=O)C12 (configuration not stated)	-0.95	i
Cc1csc(NC(=O)CSc2nncs2)n1	2.7	i
Cn1c(C(=O)N2CCc3ccccc3C2)cc2oc3ccccc3c21	-0.43*	-11*
Cc1ccc(NC(=O)CN(C)C(=O)c2cccnc2Nc2cccc(C(F)(F)F)c2)cc1	0.43	i
COc1ccc(C(=O)NC2=NCCS2)c(OC)c1	0.64	i
O=C(Nc1ccc(Oc2ccccc2)nc1)C1CCCCN1Cc1ccco1 (configuration not stated)	1.8	i
COc1ccc(C(=O)NC(=S)Nc2cccc3ncccc23)cc1[N+](=O)[O-]	-0.02	i
C/C(=C/C(=O)O)C(=O)Nc1cccc(C(F)(F)F)c1	0.29	i

# 2 entries from above, field by field.
Compound: Cc1ccc(NC(=O)CN(C)C(=O)c2cccnc2Nc2cccc(C(F)(F)F)c2)cc1
  KCNQ2 inh baseline = 0.43
  KCNQ2 inh = i
Compound: C/C(=C/C(=O)O)C(=O)Nc1cccc(C(F)(F)F)c1
  KCNQ2 inh baseline = 0.29
  KCNQ2 inh = i

# (further entries)
Structure	KCNQ2 inh baseline	KCNQ2 inh
CCc1n[nH]c(=S)n1/N=C/c1ccc2c(c1)OCO2	0.81	i
CCOC(=O)c1ccc(N2C(=O)CC(N3CCC(C(=O)OCC)CC3)C2=O)cc1 (configuration not stated)	0.53	i
O=C(Nc1nccs1)c1cn(-c2ccccc2)nc1-c1ccccc1	0.44	i
CC(NC(=O)COc1ccccc1)C(c1cccs1)N1CCCC1 (configuration not stated)	0.25	i
Cc1ccccc1NC1=NC2(CCCC2)N=C(N)N1	-0.25	i
CCC(=O)N(CCC1(C(C)C)CCOC(C)(C)C1)C(C)c1cccs1 (configuration not stated)	-1.2	i
O=Cc1cc2ccccc2nc1SCc1ccc(Cl)cc1	-0.91	i
COc1ccc(CSc2nc3nc(C)cc(C)n3n2)cc1F	0.14	i
COc1cc(O)c(C(CCN2CCCC(C)C2)c2ccc(N(C)C)cc2)c(OC)c1 (configuration not stated)	0.01	i
COc1cc(-c2nc(-c3cccc(C(F)(F)F)c3)no2)cc(OC)c1OC	0.8	i
CCOc1ccc(CCNC(=O)c2cccc(NC3=NC4CS(=O)(=O)CC4S3)c2)cc1 (configuration not stated)	1	i
CC(C)(C)n1ncc2c(=O)n(CC(=O)Nc3ccc4c(c3)OCO4)cnc21	1.1	i
Cn1cnnc1SCC(=O)NCCc1ccccc1	-0.02	i
CC(C)CC(=O)Nc1ccc(C(=O)Cn2nc(C(=O)O)c3ccccc3c2=O)cc1	0.82	i

# Assay outcomes (PubChem)
